# NS1 inh – blocks influenza NS1 protein function | S. cerevisiae slowed by influenza A NS1, growth recovery by OD600 | Potency, µM (series often up to 46.1 µM), inactives show at the top dose activity, positive = more growth | hit rate 0.4% among 270,000 | AID 2326; also: actives are rising curves; nearly all actives have a fitted effect of over 50% in size
#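 Read-out: OD600 growth recovery of NS1-expressing budding yeast. Cells grown overnight at 30C in -URA glucose medium, washed, resuspended and diluted 1:100 in 2% galactose assay medium, pH 6.0. Same strain lacking NS1 served as positive control.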
# LASV entry inh – blocks Lassa virus binding to or entry into cells; Potency, µM (doses to about 37.9 µM), inactives show at the highest dose activity change, negative = inhibition, most hits filed as inhibitors; Lassa virus pseudotype entry inhibition, cell reporter; control for the full effect not named in the record; hit rate 1.2% among 300,000; AID 540256; active means well fitted inhibition curve with a large enough effect; inconclusive means small, poorly fitted or top-dose-only effect, or effect the other way; inactive means flat fitted curve, though single readings scatter; tested in HEK293 cells; also: % is scaled to controls: 0 for no effect and ±100 for the full control effect; nearly all actives have a fitted effect of over 50% in size; luciferase read-out
# SARS PLpro yeast – SARS-CoV PLP inhibition in yeast; S. cerevisiae expressing SARS-CoV PLpro, growth rescue; control for the full effect not named in the record; Potency, µM (top dose mostly 32.9 µM), for inactives: at the highest dose activity, positive = growth rescue; hit rate 0.19% among 330,000; also: 0% is about no effect; nearly all actives have a fitted effect of over 55% in size; growth read by luminescence after 48 h
# StopGo reporter – lowers the luciferase signal of an FMDV 2A StopGo reporter | human cells with a luciferase reporter of 2A StopGo recoding; control for the full effect not named in the record | hit rate 1.2% among 410,000 | AID 1159524 | Potency, µM (titrated, usually from 57.9 µM), inactives show top-dose signal change, negative = less light; active = well fitted falling curve with a large enough effect; inconclusive = small, poorly fitted or top-dose-only effect; inactive = no such curve, though single readings can be large or run the other way; tested in HEK293T cells; also: % is scaled to controls: 0 for no effect and ±100 for the full control effect; nearly all actives have a fitted effect of over 45% in size; luciferase light after 4 h
# * = called active by the depositor; ? = inconclusive; · = not tested or not shown; [ ] = remark or other dose. Unless noted, calls follow the shape of the dose curve; as a rule, active means well fitted rising curve with a large enough effect; inconclusive means small, poorly fitted or top-dose-only effect; inactive means no such curve, though single readings can be large or run the other way. Potency is read from the fitted curve at half-maximal effect. Only part of the results is shown. The share of hits here may be higher or lower than overall.
SMILES,NS1 inh,LASV entry inh,SARS PLpro yeast,StopGo reporter
Nc1ccc(C(=O)c2cccs2)cn1,8%,·,1%,9%
COc1ccc(S(=O)(=O)n2cnc3ccccc32)c(C)c1,0%,·,0%,-28%
O=c1c2cc(Br)ccc2nc(-c2ccccc2)n1O,-96%,·,-8%,4%
CN(C(=O)c1ccccc1)C1c2c(ccc3ccccc23)OCC1CO (configuration not stated),-3%,·,-3%,-13%
Cc1nc(C)c(-c2nnc(-c3cccc(S(=O)(=O)N(C)C)c3)o2)cc1C(=O)NN,6%,·,2%,-11%
O=C(O)c1ccc(N=Nc2c(O)[nH]c3ccc(Br)cc23)cc1,7%,·,-2%,21%
CC(=O)NC1C(=O)N(CCN2CCOCC2)c2ccc(C)cc21 (configuration not stated),6%,·,0%,-13%
CCOc1cnn(-c2ccccc2)c(=O)c1Cl,2%,·,1%,44%[activator]
Cc1ccc(-n2c(O)c(C=N)c(=O)n(-c3ccc(C)cc3)c2=O)cc1,-5%,·,2%,-5%
COCCN1CC(=O)N2C(c3cccc(C)c3)c3[nH]c4ccccc4c3C[C@H]2C1=O (some centres not stated),3%,·,1%,35%[activator]
O=C(O)C(Cc1cn[nH]n1)=NO,10%,·,1%,-7%
Cc1cc(OCCCCOc2ccc(C#N)cc2)ccc1[N+](=O)[O-],-52%,·,0%,-16%
Nc1cc([N+](=O)[O-])ccc1N1C(=O)CCCC1=O,2%,·,1%,-10%
O=C1NC(=O)C(=Cc2csc3ccccc23)C(=O)N1,5%,·,2%,?
CN(C)CCNC(=O)c1cc2c(s1)-c1ccc(Cl)cc1SC2,-33%,·,-4%,?
COc1cc(/C=C2/C(=O)N(c3cccc(Br)c3)N=C2C)cc(OC)c1O,11%,·,2%,?
C=C1SC(=Nc2c(C)cccc2Cl)N(C(=O)c2sc3ccccc3c2Cl)C12CCCCC2,4%,·,2%,-22%
S=c1nc(COc2ccccc2)[nH]c2ccccc12,7%,·,-2%,5%
CCn1cc(C(=O)NCCC(=O)NCCCO)c(=O)c2cc3c(cc21)OCO3,-3%,·,3%,-8%
CCOC(=O)/C(C#N)=C/c1cccc([N+](=O)[O-])c1,-2%,·,-1%,-16%
O=[N+]([O-])c1ccc(/C=[N+](\[O-])CCO)o1,-8%,·,-1%,-7%
Oc1cccc2ccc(/C=C/c3ccccc3Cl)nc12,-63%,·,-5%,18%
CC(=O)NCC(O)c1ccc([N+](=O)[O-])cc1 (configuration not stated),-7%,·,1%,-11%
O=c1[nH]c(=S)[nH]cc1Oc1ccc(Cl)cc1Cl,9%,·,-2%,-11%
Cc1cc(C)c(N)c(C(=O)O)c1,-1%,·,2%,-16%
CCOP(=O)(OCC)/C(C#N)=C/c1cc(OC)ccc1OC,2%,·,0%,-17%
CCOC(=O)c1c(NC(=S)NC)sc2c1CCCC2,-6%,·,-3%,-24%
CN1CCC(=C2c3ccccc3C(O)c3ccccc32)CC1 (configuration not stated),4%,·,1%,7%
COc1ccc(C(CCN)c2ccc3c(c2)OCO3)cc1 (configuration not stated),2%,·,1%,4%
OC(CN1CCN(c2ccc(C(F)(F)F)cn2)CC1)c1ccccc1 (configuration not stated),-3%,·,-1%,?
NC(=O)Oc1cccc(OC(N)=O)c1,8%,·,1%,-11%
O=C(Nc1nnc(C(F)(F)F)s1)c1c(F)cccc1F,-66%,·,-4%,-3%
N#C/C(=C\C=C\c1ccccc1)c1nc(-c2ccc(Cl)cc2)cs1,1%,·,-1%,-5%
CCOC(=O)c1c(C)nc(C)c(C(=O)OCC)c1-c1cccnc1,3%,·,-2%,-12%
Cc1ccccc1CNC(=O)c1ccc(CN2CC(=O)N3CCCCC3C2=O)cc1 (configuration not stated),·,14%[46.1 µM],·,-14%
COc1cc(OC)c(NC(=O)N2CCC(CN3CCOCC3)CC2)cc1Cl,·,-9%[46.1 µM],·,-4%
Cc1cc2[nH]c(=O)c(=O)[nH]c2cc1S(=O)(=O)NCc1ccc(F)cc1,·,8%[46.1 µM],·,-8%
CCOCCCNC(=O)C1CCN(c2nn3cc(-c4ccc(F)cc4)nc3s2)CC1,·,?,·,4%
CCCCN(Cc1ccco1)C(=O)Cn1ncc2c([nH]c3ccccc32)c1=O,·,-2%[46.1 µM],·,?
COc1cc(NS(=O)(=O)c2cc3c(cc2C)n(C)c(=O)c(=O)n3C)cc(OC)c1,·,?,·,39%[activator]
CC1=C(C(=O)NCc2ccccc2C)C2(CCCCCC2)OC1=O,·,14%[46.1 µM],·,-2%
CCOc1cc(CNC(=O)Cn2c(-c3cccs3)cc3cc(F)ccc32)ccc1OC,·,-4%[46.1 µM],·,-18%
COc1ccccc1CNC(=O)C(CC(C)C)N1Cc2ccccc2C1=O (configuration not stated),·,-4%[46.1 µM],·,-2%
Cc1cccc(N2CCN(CCCNC(=O)Cn3ncc4c([nH]c5ccccc54)c3=O)CC2C)c1 (configuration not stated),·,4%[46.1 µM],·,-12%
CCc1ccc(S(=O)(=O)c2cn(CC)c3cc(N4CCCCC4)c(F)cc3c2=O)cc1,·,16%[46.1 µM],·,5%
Cn1cc(S(=O)(=O)c2ccccc2)c(=O)c2cc(F)c(N3CCN(c4ccc(F)cc4)CC3)cc21,·,5%[46.1 µM],·,-10%
COc1ccc(NC(=O)COCc2cc(-c3ccco3)on2)cc1Cl,·,·,·,0%
COc1ccc(OC)c(NC(=O)N2CCC(CN3CCCCC3)CC2)c1,·,13%[46.1 µM],·,-11%
COc1cccc(NC(=O)C2=C(C)C(=O)OC23CCN(C(C)=O)CC3)c1,·,1%[46.1 µM],·,-3%
COc1cccc(NC(=O)C2CCN(c3nn4cc(-c5ccc(F)cc5)nc4s3)CC2)c1,·,15%[46.1 µM],·,0%
Cc1cc(C)cc(NC(=O)N2CCC(CN3CCCCCC3)CC2)c1,·,25%[46.1 µM],·,-5%
CC(C)Oc1ccc(CNC(=O)CCCN2C(=O)c3cccnc3Oc3ccc(Cl)cc32)cc1,·,2%[46.1 µM],·,-16%
COc1ccc(CC(=O)Nc2ccc3nc(Nc4ccc(OC)cc4)cc(C)c3c2)cc1,·,11%[46.1 µM],·,-29%
COc1ccc(OC)c(-c2noc(N3CCN(c4cc(C)ccc4C)CC3)n2)c1,·,-24%[46.1 µM],·,-14%
CCOC(=O)c1ccc(NC(=O)c2cn3c4c(ccc(Cl)c4c2=O)OC(C)C3)cc1 (configuration not stated),·,13%[46.1 µM],·,-13%
COc1cc(Cl)c(NC(=O)CCS(=O)(=O)c2cc3c(cc2Cl)NC(=O)CO3)c(OC)c1,·,10%[46.1 µM],·,-19%
CSc1ncc(C(=O)NCc2ccc(F)cc2)c(-c2ccccc2)n1,·,20%[46.1 µM],·,-5%
CC1=C(C(=O)Nc2cccc(C(F)(F)F)c2)C2(CCCCCC2)OC1=O,·,-1%[46.1 µM],·,-5%
COc1ccc(-c2cn3nc(N4CCC(C(=O)Nc5cccc(C)c5C)CC4)sc3n2)cc1,·,19%[46.1 µM],·,6%
COc1ccc(OC)c(-c2noc(N3CCN(c4cc(Cl)ccc4C)CC3)n2)c1,·,-8%[46.1 µM],·,-26%
# New compounds follow:
SMILES,NS1 inh,LASV entry inh,SARS PLpro yeast,StopGo reporter
COc1cc(Cl)c(NC(=O)CCS(=O)(=O)c2ccc3c(c2)NC(=O)CO3)c(OC)c1,·,17%[46.1 µM],·,-2%
Cc1ccc(S(=O)(=O)N2CCN(C(=O)c3cc(-c4ccc(Br)cc4)n[nH]3)CC2)c(C)c1,·,5%[46.1 µM],·,?
COc1cccc(CNC(=O)c2ccc(-n3c(C)cc4c3CCC(C)C4)cc2)c1 (configuration not stated),·,?,·,-22%
O=C(NCc1ccccc1Cl)c1ccc(Cn2c(SCc3ccccc3)nc3cccnc32)cc1,·,25%[46.1 µM],·,0%
Cc1ccc(NC(=O)c2cc(S(=O)(=O)N3CCCCC3)c[nH]2)cc1N(C)C,·,15%[46.1 µM],·,-1%
COc1ccc(Cl)cc1NC(=O)c1cnc(SC)nc1-c1ccccc1,·,-18%[46.1 µM],·,-16%
CCn1cc(S(=O)(=O)c2ccc(OC)cc2)c(=O)c2cc(F)c(N3CCC(C)CC3)cc21,·,-24%[46.1 µM],·,-11%
CC1=C(C(=O)NCCc2ccc(Cl)cc2)C2(CCCCC2)OC1=O,·,3%[46.1 µM],·,-8%
CC(C)Oc1ccc(CNC(=O)c2ccc(CN3CC(=O)N4CCCCC4C3=O)cc2)cc1 (configuration not stated),·,-11%[46.1 µM],·,-15%
COc1ccc(-c2nc3scc(CCNC(=O)c4cc(OC)cc(OC)c4)n3n2)cc1,·,16%[46.1 µM],·,?
COCCCNC(=O)C1CCCN(c2nn3cc(-c4ccc(C)cc4)nc3s2)C1 (configuration not stated),·,-1%[46.1 µM],·,-1%
CCN1CCc2c(sc(-n3cccc3)c2C(C)NC(=O)Nc2ccccc2C)C1 (configuration not stated),·,-2%[46.1 µM],·,27%

# Laid out differently: results already given
canonical_smiles	NS1 inh	LASV entry inh	SARS PLpro yeast	StopGo reporter
O=c1[nH]c(=S)[nH]cc1Oc1ccc(Cl)cc1Cl	9%	·	-2%	-11%
Cc1cc(C)c(N)c(C(=O)O)c1	-1%	·	2%	-16%
CCOP(=O)(OCC)/C(C#N)=C/c1cc(OC)ccc1OC	2%	·	0%	-17%
CCOC(=O)c1c(NC(=S)NC)sc2c1CCCC2	-6%	·	-3%	-24%
CN1CCC(=C2c3ccccc3C(O)c3ccccc32)CC1 (configuration not stated)	4%	·	1%	7%
COc1ccc(C(CCN)c2ccc3c(c2)OCO3)cc1 (configuration not stated)	2%	·	1%	4%
OC(CN1CCN(c2ccc(C(F)(F)F)cn2)CC1)c1ccccc1 (configuration not stated)	-3%	·	-1%	?
NC(=O)Oc1cccc(OC(N)=O)c1	8%	·	1%	-11%
O=C(Nc1nnc(C(F)(F)F)s1)c1c(F)cccc1F	-66%	·	-4%	-3%
N#C/C(=C\C=C\c1ccccc1)c1nc(-c2ccc(Cl)cc2)cs1	1%	·	-1%	-5%
CCOC(=O)c1c(C)nc(C)c(C(=O)OCC)c1-c1cccnc1	3%	·	-2%	-12%
Cc1ccccc1CNC(=O)c1ccc(CN2CC(=O)N3CCCCC3C2=O)cc1 (configuration not stated)	·	14%[46.1 µM]	·	-14%
COc1cc(OC)c(NC(=O)N2CCC(CN3CCOCC3)CC2)cc1Cl	·	-9%[46.1 µM]	·	-4%
Cc1cc2[nH]c(=O)c(=O)[nH]c2cc1S(=O)(=O)NCc1ccc(F)cc1	·	8%[46.1 µM]	·	-8%

# Reformatted tab-delimited: part of the list above.
SMILES	NS1 inh	LASV entry inh	SARS PLpro yeast	StopGo reporter
CC1=C(C(=O)NCCc2ccc(Cl)cc2)C2(CCCCC2)OC1=O	·	3%[46.1 µM]	·	-8%
CC(C)Oc1ccc(CNC(=O)c2ccc(CN3CC(=O)N4CCCCC4C3=O)cc2)cc1 (configuration not stated)	·	-11%[46.1 µM]	·	-15%

# Additional structures
SMILES,NS1 inh,LASV entry inh,SARS PLpro yeast,StopGo reporter
CCOC(=O)c1cccc(NS(=O)(=O)c2cc3[nH]c(=O)c(=O)[nH]c3cc2C)c1,·,21%[46.1 µM],·,-1%
Cn1cc(S(=O)(=O)c2cccc(Cl)c2)c(=O)c2cc(F)c(N3CCCCCC3)cc21,·,?,·,8%
CC1=C(C(=O)Nc2ccc(F)cc2F)C2(CCCCCC2)OC1=O,·,12%[46.1 µM],·,-2%
Cc1ccc(C)c(N2CCN(c3ncnc4c3nc3n4CCCC3)CC2)c1,·,16%[46.1 µM],·,?
O=C(Nc1ccc(F)cc1F)C(Cc1ccccc1)N1Cc2ccccc2C1=O (configuration not stated),·,0%[46.1 µM],·,18%
COCCCNC(=O)NC(CCC(C)C)c1c(-n2cccc2)sc2c1CCN(C)C2 (configuration not stated),·,-5%[46.1 µM],·,-12%
Cc1cccc(S(=O)(=O)c2cn(C)c3cc(N4CCN(c5ccccc5)CC4)c(F)cc3c2=O)c1,·,23%[46.1 µM],·,-1%
COc1ccc(CN(C(=O)Nc2cc(C)ccc2C)C2CCN(C(C)=O)CC2)cc1,·,-17%[46.1 µM],·,-6%
COc1cc(NS(=O)(=O)c2ccc3[nH]c4c(c3c2)CCCC4)cc(OC)c1OC,·,?,·,-3%
COc1ccc(NC(=O)CN(C)S(=O)(=O)c2ccc3[nH]c4c(c3c2)CCCC4)cc1Cl,·,-21%[46.1 µM],·,?
CCCn1cc(S(=O)(=O)c2ccc(CC)cc2)c(=O)c2cc(F)c(N3CCN(C)CC3)cc21,·,14%[46.1 µM],·,9%
CCN(C(=O)Cn1c(SCc2ccccc2F)nc2cccnc21)c1ccccc1,·,-3%[46.1 µM],·,12%

# Bioassay records: PubChem BioAssay, National Center for Advancing Translational Sciences (NCATS)
